Screens deposited in PubChem by several laboratories.
RecA intein inh – Mtb RecA intein splicing inhibitors, primary screen, biochemical, fluorescence, HTS; Protein RecA (Mycobacterium tuberculosis (strain ATCC 25618 / H37Rv)), P9WHJ3; cell-free RecA intein splicing; inhibition, %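 (about 9 µM by stock and volumes)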; 290,000 compounds, 0.75% hits; AID 2221, 2009; in the data active = inhibition above about 30%; inconclusive = no clear call, values can overlap the other calls;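 note: 0% = vehicle wells and 100% = reference inhibitor control wells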
Target sequence (P9WHJ3 whole entry, looked up): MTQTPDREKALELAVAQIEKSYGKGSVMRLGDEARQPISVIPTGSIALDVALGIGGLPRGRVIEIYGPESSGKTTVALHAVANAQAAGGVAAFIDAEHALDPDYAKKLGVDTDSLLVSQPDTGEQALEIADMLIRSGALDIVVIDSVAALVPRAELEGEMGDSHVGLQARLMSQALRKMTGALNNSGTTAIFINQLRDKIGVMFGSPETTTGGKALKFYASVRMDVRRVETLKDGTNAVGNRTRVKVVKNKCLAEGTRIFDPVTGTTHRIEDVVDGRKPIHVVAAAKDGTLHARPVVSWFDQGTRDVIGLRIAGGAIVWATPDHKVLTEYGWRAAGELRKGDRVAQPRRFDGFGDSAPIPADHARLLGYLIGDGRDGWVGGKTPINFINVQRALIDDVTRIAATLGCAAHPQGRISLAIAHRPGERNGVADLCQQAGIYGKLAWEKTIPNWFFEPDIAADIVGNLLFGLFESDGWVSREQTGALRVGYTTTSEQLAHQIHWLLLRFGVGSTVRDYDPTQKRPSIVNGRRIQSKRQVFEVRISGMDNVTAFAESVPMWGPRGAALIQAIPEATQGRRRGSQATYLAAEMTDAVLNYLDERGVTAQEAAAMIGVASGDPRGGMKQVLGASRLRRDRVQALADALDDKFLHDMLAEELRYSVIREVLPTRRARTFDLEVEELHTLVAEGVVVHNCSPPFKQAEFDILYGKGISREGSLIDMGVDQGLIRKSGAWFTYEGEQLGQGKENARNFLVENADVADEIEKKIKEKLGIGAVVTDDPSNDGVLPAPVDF
YopH inh – YopH tyrosine phosphatase inhibitors, primary screen, biochemical, fluorescence Ex485/Em525 | inhibition, %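 (about 10 µM by stock and volumes)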 | 140,000 compounds, 0.16% hits;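 active = inhibition of 50% or more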;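 note: controls were vehicle for no effect and minimum signal wells for full effect; inactives centre near -20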
Mtb bLac sens – beta-lactam sensitization of Mtb H37Rv, H37Rv. M. tuberculosis H37Rv growth with meropenem, percent inhibition; hits of this screen are not shown here. inhibition, % at 25 µM. 330,000 compounds, 0.27% hits;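 active = about 74% or more and at least 40 points above the plate without the antibiotic, then above 30% in a dose series; inconclusive = first-round hits that could not be retested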;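 note: growth measured after seven days incubation then overnight dye step; 0% = bacteria only wells and 100% = bacteria with antibiotic; twin plates without the antibiotic show which effects depend on it; some results filed as inactive read as strong as hits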
Mtb growth – M. tuberculosis H37Rv growth inhibitors, H37Rv strain (AID 1626); inhibition, % at 10 µM, or IC50 in µM where a hit was titrated; 220,000 compounds, 0.95% hits; M. tuberculosis H37Rv growth inhibition; higher % means a stronger effect;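 active = confirmed in a dose series; inconclusive = inhibition above 80% but not taken into the dose series; inactive = below 80% or under 30% at every dose of the series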;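 note: bacteria incubated seven days before Alamar blue readout; 0% = bacteria only wells and 100% = bacteria with antibiotic wells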
Arbovirus inh – antivirals against arbovirus infection, primary screen, cell-based, full library, 10K replicate subset | arbovirus infection cell-based antiviral screen | inhibition, % at 10 µM | 200,000 compounds, 0.37% hits;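 active = inhibition from about 30%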;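 note: bluetongue infection of BSR cells; cell survival read as ATP light after 72 h; 0% = infected wells without compound and 100% = uninfected wells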
Arbovirus inh repeat – recorded beside Arbovirus inh, whose call it bears; inhibition, %; measured here: 10K subset replicate screen; many hits read low in the repeat;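 first of two repeat runs on a subset; 0% = infected and 100% = uninfected wells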
Numbers without * were called inactive; ? = inconclusive; . = not tested or not shown. Some of the compounds tested, so the mix of outcomes need not match the whole.

SMILES | RecA intein inh | YopH inh | Mtb bLac sens | Mtb growth | Arbovirus inh | others
CCOC(=O)C1C(=O)CC(C)(O)C(C(=O)OCC)C1c1ccc(Br)cc1 (centres undefined) | -0.8 | -3.4 | -4.8 | -5.2% | 4.4
COc1cc(C(=O)OC2CCOC2=O)cc(Cl)c1OC (centres undefined) | -1.0 | . | -4.3 | . | .
Cc1ccc(-c2cn3c(=S)[nH]nc3s2)cc1 | -1.7 | -45.6 | 9.1 | . | -8.8
COc1ccccc1NC(=S)NC(=O)c1c(-c2ccccc2Cl)noc1C | 7.2 | . | -1.1 | 5.4% | 1.1
O=c1[nH]cccc1-c1nc2cc(Cl)ccc2n1Cc1ccccc1 | -1.3 | . | -2.2 | . | .
O=C(CSc1nnnn1-c1ccccc1F)Nc1nc2ccccc2s1 | -0.8 | -8.1 | -2.5 | -6.6% | -7.1
c1ccc(OCc2nnc3sc(C4COc5ccccc5O4)nn23)cc1 (centres undefined) | 0.1 | 0.7 | 7.9 | 5.0% | 13.4 | Arbovirus inh repeat=4.5
CCOc1ccc(C(C(=O)NC2CCCC2)N(C(=O)CNC(=O)c2ccco2)c2cccnc2)cc1 (centres undefined) | 1.0 | . | -2.6 | . | .
Cc1nn(Cc2ccc(Cl)cc2Cl)c(Cl)c1C(=O)Nc1ccc(OC(F)F)cc1 | -1.0 | -23.0 | -1.5 | 0.4% | -2.8
COc1ccccc1C(=O)NCC(=O)NCCc1ccc(Cl)cc1 | 0.1 | . | -4.1 | . | .
Cc1cc(C)c2oc(C(=O)N3CCN(Cc4ccccc4)CC3)cc(=O)c2c1 | -1.3 | . | 0.0 | . | .
COC(=O)c1ccc(/C=C/c2c(-c3ccc(OC)cc3)oc3ccc(N4CCOCC4)cc23)cc1 | -4.9 | . | 96.2 | . | .
CN(C)n1cccc1/C=C(\C#N)S(=O)(=O)c1cccc(Cl)c1 | -0.4 | . | 2.4 | 5.9% | .
COc1cccc(/C=N/Nc2nc3ccccc3[nH]2)c1OC | 0.4 | . | -4.0 | 1.7% | .
Cc1cccc(-c2cc(C(=O)NCc3ccccn3)c3ccccc3n2)c1 | -1.0 | -20.0 | 6.9 | 11.7% | 1.8
O=[N+]([O-])c1cc(-c2ccc(/C=N/c3nc4ccccn4c3-c3ccco3)o2)ccc1Cl | -4.1 | -11.5 | 10.4 | -2.7% | -4.2
O=C(O)CN1C(=O)CNC1=O | 0.1 | -15.7 | 10.0 | 0.5% | -1.9
COc1ccc(C(NC(C)=O)c2nccc3cc(OC)c(OC)cc23)cc1OC (centres undefined) | -0.1 | . | 1.2 | . | .
O=C(CCN(NC(=O)c1ccccc1)C1=NS(=O)(=O)c2ccccc21)NC1CCCCC1 | -0.1 | -21.1 | 0.2 | -8.5% | 2.4
COc1cc2c(cc1OC)[C@@]13CCN4CC5=CCO[C@H]6CC(=O)N2[C@H]1[C@H]6[C@H]5C[C@H]43 | -0.2 | -19.7 | -3.9 | -11.2% | -22.9
CC1CC(C)CN(S(=O)(=O)c2ccc(C(=O)N3CCCC3)cc2)C1 (centres undefined) | 2.3 | . | -10.1 | . | .
O=C1C(=O)N(CCS(=O)(=O)c2ccccc2)c2ccccc21 | 0.4 | . | 2.1 | . | .
CCC(C(=O)NCc1ccco1)n1nc(C)c2c(C)n(-c3ccccc3)nc2c1=O (centres undefined) | 0.8 | . | -4.5 | . | .
COC(=O)[C@@]1(Cc2ccc(OC)cc2)[C@H]2c3cc(C(=O)N(C)C)n(C[C@H](O)CO)c3C[C@H]2CN1C(=O)c1ccccc1 | . | 4.7 | -3.8 | -9.1% | 7.1
COc1ccc(Cn2ccnc2SCC(=O)Nc2cccc(NC(C)=O)c2)cc1 | -1.3 | . | -12.1 | 3.9% | 0.5
CC(=O)c1cc2c(cc1N/C(=N/S(=O)(=O)c1ccc(Br)cc1)c1ccccc1)OCO2 | -9.8 | . | 4.5 | 3.6% | -8.3
CCCCN(Cc1ccccc1)S(=O)(=O)c1ccc2[nH]c(=O)oc2c1 | 8.3 | -11.0 | 5.9 | 7.0% | 1.3
Nc1ccc(S(=O)(=O)NNC(=O)C(=O)NNc2ccccc2)cc1 | -12.8 | -14.9 | 94.8 | ? | -31.2
CC(C)(C)NC(=O)CSc1nc2ccccc2n1-c1ccccc1 | 7.8 | -20.5 | 7.2 | 0.7% | -0.6
Cc1ccc(SCC2=NN(c3nc(C)cc(C)n3)C(=O)C2)cc1 | 9.7 | . | -3.4 | -2.6% | -2.3
O=C(COC(=O)CSc1nnc(-c2ccc(Cl)cc2)o1)Nc1cc(Cl)cc(Cl)c1 | -2.0 | -18.5 | 97.2 | 1.2% | 2.3
NS(=O)(=O)c1ccc(CCNc2nc(CN3CCOCC3)nc3sc4c(c23)CCC4)cc1 | 2.7 | -51.9 | -0.6 | -5.5% | .
COCCNC(=O)c1cc2c(=O)n(C)c3ccccc3c2n1C | 1.3 | -36.2 | -4.4 | -1.4% | -3.2 | Arbovirus inh repeat=-5.1
CN(C)S(=O)(=O)c1ccc(N2CCCC2)c(C(=O)NNC(=O)c2ccc(Br)cc2)c1 | 1.3 | . | -11.1 | . | .
COc1ccc(Cl)cc1C(=O)NCCN(C)C | -0.2 | -22.1 | -0.1 | -13.9% | 6.6
Cc1ccc(C(=O)N/N=C/c2cccc3ccccc23)cn1 | 0.6 | . | -8.1 | . | .
C[C@@H](NC(=O)[C@@H]1Cc2ccccc2CN1)C(=O)NC1CCCC1 | -4.1 | . | -4.4 | . | .
CCCN(C(=O)CSc1nnc(-c2ccoc2C)n1N)C1CCS(=O)(=O)C1 (centres undefined) | 0.5 | -36.6 | -1.1 | -1.7% | 8.0
Brc1cc2c(cc1CSc1ncccn1)OCO2 | 0.9 | . | -1.5 | . | .
Nc1nc(Nc2ccc(Cl)cc2Cl)nc(C(F)(F)F)n1 | . | -1.5 | 1.4 | 23.8% | 2.8

Ordered by heavy-atom count (low to high): some entries from above.
SMILES | RecA intein inh | YopH inh | Mtb bLac sens | Mtb growth | Arbovirus inh | others
Brc1cc2c(cc1CSc1ncccn1)OCO2 | 0.9 | . | -1.5 | . | .
Nc1nc(Nc2ccc(Cl)cc2Cl)nc(C(F)(F)F)n1 | . | -1.5 | 1.4 | 23.8% | 2.8
CC(C)(C)NC(=O)CSc1nc2ccccc2n1-c1ccccc1 | 7.8 | -20.5 | 7.2 | 0.7% | -0.6
O=C(COC(=O)CSc1nnc(-c2ccc(Cl)cc2)o1)Nc1cc(Cl)cc(Cl)c1 | -2.0 | -18.5 | 97.2 | 1.2% | 2.3
CN(C)S(=O)(=O)c1ccc(N2CCCC2)c(C(=O)NNC(=O)c2ccc(Br)cc2)c1 | 1.3 | . | -11.1 | . | .

The listing picks up, repeating the seven entries before the break.
SMILES | RecA intein inh | YopH inh | Mtb bLac sens | Mtb growth | Arbovirus inh | others
CN(C)S(=O)(=O)c1ccc(N2CCCC2)c(C(=O)NNC(=O)c2ccc(Br)cc2)c1 | 1.3 | . | -11.1 | . | .
COc1ccc(Cl)cc1C(=O)NCCN(C)C | -0.2 | -22.1 | -0.1 | -13.9% | 6.6
Cc1ccc(C(=O)N/N=C/c2cccc3ccccc23)cn1 | 0.6 | . | -8.1 | . | .
C[C@@H](NC(=O)[C@@H]1Cc2ccccc2CN1)C(=O)NC1CCCC1 | -4.1 | . | -4.4 | . | .
CCCN(C(=O)CSc1nnc(-c2ccoc2C)n1N)C1CCS(=O)(=O)C1 (centres undefined) | 0.5 | -36.6 | -1.1 | -1.7% | 8.0
Brc1cc2c(cc1CSc1ncccn1)OCO2 | 0.9 | . | -1.5 | . | .
Nc1nc(Nc2ccc(Cl)cc2Cl)nc(C(F)(F)F)n1 | . | -1.5 | 1.4 | 23.8% | 2.8
Cn1cc(C(=O)Nc2ccc(F)c(Cl)c2)cn1 | -2.6 | -6.0 | 6.2 | -1.4% | 5.3
CCOC(=O)c1sc(=NC(=O)c2c(F)cccc2F)n(C)c1C | -1.0 | . | 2.8 | . | .
CC(=O)c1cccc(CN2CCCC(CCC(=O)NCc3ccccc3F)C2)c1 (centres undefined) | 5.6 | . | 7.9 | -1.4% | -5.4
Cc1cc(N(C)Cc2ccccc2)nc2cc(O)ccc12 | -110.4 | . | 8.0 | . | .
CN1CCN(C(=O)C2=C[C@H](c3coc4ccccc4c3=O)C[C@H](OCCCCO)O2)CC1 | -1.4 | . | -18.4 | -14.7% | 3.9
COCCNC(=O)C(c1ccc(C)o1)N(C(=O)c1snc(C(N)=O)c1N)c1cccc(C)c1 (centres undefined) | 0.9 | -53.1 | 2.4 | -6.8% | -5.2
c1csc(Cn2nnnc2CN2CCN(c3nc4ccccc4s3)CC2)c1 | 1.8 | -28.4 | -7.3 | 15.6% | 10.8
Cc1onc(-c2ccccc2)c1C(=O)N1CCCSC1=Nc1ccccc1 | 4.7 | 31.9 | -5.8 | 1.4% | -7.4
Cc1cccc(C)c1OCc1cc(C(=O)N2CCN(c3ccc(F)cc3)CC2)no1 | 0.4 | . | 8.9 | . | .
CCCCOc1ncnc2c1[nH]c1ccc(C)cc12 | . | . | -7.1 | 1.7% | .
CCCN(C(=O)c1cn(CC)c2nc(C)ccc2c1=O)c1c(N)n(Cc2ccccc2)c(=O)[nH]c1=O | 7.1 | . | -6.2 | 2.7% | 24.5
Cc1ccccc1-n1c(O)c(C=Nc2ccc(N(C)C)cc2)c(=O)[nH]c1=O | -2.0 | -24.0 | ? | -2.3% | 2.3
CCCC(=O)Nc1nn(CC(C)C)c2nc3cc(C)ccc3cc12 | -50.6 | . | 0.2 | . | .
COc1ccc(-c2c(C)nn(-c3ccccc3)c2N)cc1OC | 0.4 | -21.4 | 2.3 | -2.2% | -16.9
CN(C(=O)CSC1=NCCS1)c1ccccc1 | 3.2 | 13.0 | -4.6 | 9.3% | -12.4
CC(=O)NCc1ccc(-c2csc(N)n2)s1 | -7.2 | -52.3 | -8.3 | -6.0% | -0.2
NC1=C([N+](=O)[O-])C(c2ccccc2)C2=C(CCCC2=O)O1 (centres undefined) | 2.8 | -29.5 | -1.7 | -5.7% | -0.8
C=CCn1c(CSc2nc3ccccc3s2)nnc1SCC(=O)NCCN1CCOCC1 | 1.7 | 40.1 | -3.2 | -17.8% | 1.3
NC(=O)c1sc2nc3c(c(-c4ccco4)c2c1N)CCCC3 | -0.9 | . | 0.5 | 3.1% | .
Cn1c(=O)c2c(-c3cccc(F)c3)c3c(nc2n(C)c1=O)-c1ccccc1C3O (centres undefined) | . | -27.2 | . | -1.7% | 0.5
Fc1ccc(Cn2nnc3ccccc32)cc1 | 1.6 | . | 0.8 | . | .
CN(Cc1ccccc1)c1ncnc2ccc(Br)cc12 | 8.2 | -17.8 | -5.8 | 16.7% | 4.7
NC(=O)CSc1nc2scc(-c3ccco3)c2c(=O)n1-c1ccccc1 | 3.3 | -33.5 | 0.4 | -10.2% | 4.4
CCOC(=O)C(C(C)=O)C(c1ccc(OCCC(C)C)cc1)C(C(C)=O)C(=O)OCC (centres undefined) | -0.7 | -12.8 | 8.8 | -8.4% | -6.8
COc1ccc(C(NCC(=O)Nc2c(C)cccc2C)c2ccccc2)cc1 (centres undefined) | 6.6 | . | -1.9 | . | .
O=C(NCc1ccc2c(c1)OCO2)c1cc(-c2ccccc2Cl)on1 | 1.6 | -53.8 | -3.4 | -5.9% | -13.6
CCC(C)c1ccc(NC(=O)c2cccs2)cc1 (centres undefined) | -0.8 | -17.0 | 68.8 | 50.9% | -7.1
O=C(Oc1cccc([N+](=O)[O-])c1)C1CCN(C(=O)c2ccc(F)cc2)CC1 | 19.1 | . | -9.6 | . | .
COc1ccccc1P(=O)(c1ccccc1)c1ccccc1NC(C)=O (centres undefined) | 1.7 | . | -6.7 | 4.6% | .
O=C(c1cc2cc(Br)ccc2o1)N1CCN(c2ccccc2)CC1 | 1.1 | . | -18.6 | . | .
